D2 potentiator: human D2 receptor positive allosteric modulation; P14416; DiscoveRx D2 beta-arrestin cells, luminescence, 90 min; 100% = 57 uM dopamine signal; potentiation, % (no concentration beside the values); 360,000 compounds, 0.23% hits; active = potentiation of 50% or more; inconclusive = 30% to 50%; inactive = 30% or less;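 further: compound concentration not given in the record; tested on top of an EC20 dose of dopamine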
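PathHunter beta-arrestin assay in DiscoveRx D2 cells. Compounds were added with an EC20 of dopamine (50 nM final) for 90 min at 37 deg C. Luminescence was read 1 h after detection reagent, with 57 uM dopamine as the EC100 control.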
CtBP-E1A inh: blocks the CtBP interaction with E1A; AlphaScreen GST-E1A/His-CtBP binding, 1536-well; active compounds read low; control for the full effect not named in the record; activity change, % (test concentration not listed); AID 651724; 340,000 compounds, 0.49% hits; in the data active means activity change below about -65%; inconclusive means about -30% to -65%; inactive means above about -30%; further: on the % scale 0 is the no-effect control and ±100 the full control effect
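Steps: dispense buffer (Tris pH 8.0, NaCl 300 mM, TCEP 1 mM, BSA, Tween 20); add 5X protein mix (GST-E1A, His-CtBP, 125 nM each); pin 23 nL compound; 2 h at 37 °C, dark; add 5X beads (50 ug/mL); 1 h; read.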
Sfp PPTase inh: blocks B. subtilis Sfp PPTase activity. Q9F4F7. Biochemical Sfp PPTase activity, qHTS. Potency, µM, for the others: max response, negative = inhibition, most hits filed as inhibitors. 310,000 compounds, 3.5% hits. AID 1490; active means well fitted inhibition curve with a large enough effect; inconclusive means small, poorly fitted or top-dose-only effect, or another doubt; inactive means no such curve, though single readings can be large or run the other way;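 further: the enzyme is Sfp with the accession as filed and its product quenches rhodamine fluorescence; potency means the concentration at half of the fitted maximal effect; 0% = enzyme reaction without inhibitor and -100% = no enzyme wells; top concentration of the series not given in the record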
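With Hepes-Na pH 7.6 buffer containing 10 mM MgCl2, Sfp (15 nM) modified BHQ-2-YbbR (12.5 uM) using rhodamine-CoA (5 uM). Two reads 30 minutes apart at 525/598 nm yielded each well's rate.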
Six1-Eya2 inh: Six1/Eya2 interaction inhibition; Q15475+O00167; AlphaScreen GST-Six1/His-Eya2 binding, biochemical; active compounds read low; control for the full effect not named in the record; activity change, % (test concentration not listed); 360,000 compounds, 0.56% hits; in the data active = activity change below about -65%; inconclusive = about -30% to -65%; inactive = above about -30%; further: on the % scale 0 is the no-effect control and ±100 the full control effect
Target sequence (O00167 whole entry, looked up): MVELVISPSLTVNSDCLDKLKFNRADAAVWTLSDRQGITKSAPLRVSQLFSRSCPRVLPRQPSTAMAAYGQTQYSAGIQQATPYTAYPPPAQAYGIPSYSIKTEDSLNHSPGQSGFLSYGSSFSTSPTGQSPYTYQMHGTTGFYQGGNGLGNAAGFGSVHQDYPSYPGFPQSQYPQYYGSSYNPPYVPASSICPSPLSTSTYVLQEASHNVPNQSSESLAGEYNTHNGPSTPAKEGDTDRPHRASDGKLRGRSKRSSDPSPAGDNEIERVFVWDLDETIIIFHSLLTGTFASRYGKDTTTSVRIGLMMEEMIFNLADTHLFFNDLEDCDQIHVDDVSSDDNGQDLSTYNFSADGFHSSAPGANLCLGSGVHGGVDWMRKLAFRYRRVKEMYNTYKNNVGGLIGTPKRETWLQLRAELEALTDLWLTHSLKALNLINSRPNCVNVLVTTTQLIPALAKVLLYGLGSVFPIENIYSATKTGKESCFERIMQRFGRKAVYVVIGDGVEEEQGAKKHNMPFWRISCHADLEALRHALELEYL
Target sequence (Q15475 whole entry, looked up): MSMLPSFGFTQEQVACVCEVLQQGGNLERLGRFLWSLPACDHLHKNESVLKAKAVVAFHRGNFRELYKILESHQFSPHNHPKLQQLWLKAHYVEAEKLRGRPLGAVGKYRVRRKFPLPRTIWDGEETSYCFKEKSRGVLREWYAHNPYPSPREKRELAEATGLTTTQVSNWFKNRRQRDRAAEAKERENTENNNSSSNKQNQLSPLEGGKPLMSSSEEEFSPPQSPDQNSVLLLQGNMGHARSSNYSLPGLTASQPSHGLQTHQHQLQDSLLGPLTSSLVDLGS
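Compounds are tested against tagged Six1 and Eya2 proteins bridged by glutathione donor and nickel acceptor beads; after a one-hour incubation at 37 °C without light, AlphaScreen emission is recorded.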
D2 ag: human D2 receptor agonism in beta-arrestin assay; AID 624465; DiscoveRx PathHunter D2 beta-arrestin, luminescence, 90 min; 100% = 57 uM dopamine signal; P14416; activation, % (concentration not given with the values); 360,000 compounds, 0.084% hits; in the data active = activation above about 40%; inconclusive = about 15% to 40%; inactive = below about 15%; further: the text of the record calls up to 30% inactive
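DiscoveRx PathHunter D2 beta-arrestin cells (2,100/well) attached overnight, then compound-stimulated 90 min at 37 C in HBSS/10 mM HEPES/0.1% Tween-20 buffer; beta-galactosidase complementation read by luminescence after 1 h at ambient temperature. Dopamine 57 uM final (EC100) as control.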
TRPV1 potentiator: enhances activation of the human vanilloid receptor TRPV1. TRPV1-expressing cells, Fluo-8 calcium influx, capsaicin EC20 potentiation; host cell line not named in the record; control for the full effect not named in the record. potentiation, % at 8.33 µM. 320,000 compounds, 0.02% hits; active means potentiation above 80%; inconclusive means 30% to 80%; inactive means below 30%; further: 0% is about no effect
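TRPV1-expressing cells were cultured overnight at 35.5C and loaded with Fluo-8 calcium dye for 40 to 90 min at room temperature. After a 10 s baseline, compound was added and calcium influx was read kinetically for 3 min (ex 480/em 520 nm).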
PINK1 modulator: changes PINK1 expression; 410,000 compounds, 0.2% hits; PINK1 immunofluorescence, high-content cytometry, 24 h; Potency, µM (doses to about 76.6 µM), for the others: at the highest dose activation (PINK1 increase), actives largely listed as activators; active = well fitted activation curve with a large enough effect; inconclusive = small, poorly fitted or top-dose-only effect; inactive = flat fitted curve, though single readings scatter; cell line not stated here;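 further: potency means the concentration at half of the fitted maximal effect; % of control where 0% means no effect; nearly all actives have a fitted effect of over 65% in size; a mitochondrial uncoupler was the plate control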
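Stable cell line treated 24 h with compounds at 5 concentrations (CCCP controls), then fixed and immunostained for PINK1 plus nuclear and cell stains; PINK1 immunofluorescence quantified by laser-scanning microplate cytometry.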
The depositor's hits bear a star; ? = inconclusive; . = no result given; & = joins results of further samples; [ ] = remark or other dose.

SMILES	D2 potentiator	CtBP-E1A inh	Sfp PPTase inh	Six1-Eya2 inh	D2 ag	TRPV1 potentiator	PINK1 modulator
Clc1cccc(-c2nnc3n2CCCCC3)c1	-13	7	16%	-7	-4.6	4	2.0%
CC(C)(C(=O)N[C@H](CO)c1ccccc1)C(=O)N[C@H](CO)c1ccccc1	-21	3	8%	0	3.1	-3	0.8%
O=C(NCc1ccc(Cl)cc1)C1CCN(S(=O)(=O)N2CCOCC2)CC1	0	.	-8%	-1	1.1	?	-1.5%
CN(C)/C=C(\C=O)c1cccc(Cl)c1	-7	18	22%	-4	-2.3	2	0.7%
CC(C)CN(CCCNC(=O)CN1C(=O)COc2ccc(S(=O)(=O)N3CCCCCC3)cc21)CC(C)C	-6	6	14%	2	-5.7	3	-1.1%&-1.4%
CCOC(=O)c1c(S(=O)(=O)NCCc2ccc(OC)c(OC)c2)c(C)n(C)c1C	-9	-1	17%	0	-3.6	9	1.5%
CCCc1nc2c(Cl)cc(C(F)(F)F)cn2c1Cc1ccc(OC)cc1C	.	2	.	-16	.	.	12%
CN1C(=O)c2ccc(Oc3ccccc3)cc2C1=O	-8	5	.	13	1.7	.	-0.5%
CS(=O)(=O)Cc1ccc(C(=O)NC(c2ccccc2)c2ccccc2)cc1	-3	-1	-7%	6	2.0	-35	-0.2%
CC(C)OC(=O)CC12CN3CC(CC(=O)OC(C)C)(CN(C1)C(=O)c1ccccc1C3=O)C2=O	-9	0	8%	11	2.4	4	0.8%
CCCCc1cc(C(=O)Cc2ccccn2)c(O)cc1O	-5	.	2%	-7	4.9	-17	4.0%
CCC(C)(C)n1nnnc1C(c1ccc(OC)c(OC)c1)N1CCN(c2ccc(OC)cc2)CC1 (stereo not given)	-5	-11	18%	-27	-0.7	.	-1.0%
CCCn1c(CCC(=O)Nc2ccccc2Cc2ccccc2)nc2cc(S(=O)(=O)N3CCOCC3)ccc21	0	-6	12%	1	-0.6	-26	1.4%
CCCC(=O)Nc1ccc2nc(SCC(=O)Nc3ccc(N4CCOCC4)c(Cl)c3)sc2c1	3	-4	1%	-8	-1.5	12	0.5%
CCOc1cc(C=O)cc(N=Nc2cccc([N+](=O)[O-])c2)c1O	-11	-12	9%	-15	4.0	0	-0.9%
O=C(Nc1ccc(Cl)c(S(=O)(=O)N2CCOCC2)c1)c1ccc2c(c1)OCCO2	12	-29	10%	-22	1.9	-19	1.6%
CCSc1nnc(-c2ccc(S(=O)(=O)NCc3cccs3)cc2)o1	2	17	1%	8	5.6	-2	9.1%[38.3 µM]
COC1OCC(O)C(OC(=O)c2ccccc2)C1OC(=O)c1ccccc1 (stereo not given)	1	2	.	0	-1.3	.	-4.1%
O=[N+]([O-])c1cc(Cl)ccc1-c1nc(-c2ccccc2)no1	27	-16	-9%	?	9.6	1	0.3%
CCOC(=O)c1ccc(-n2c(CCC(=O)O)ccc2-c2ccc(F)cc2)cc1	-12	.	-2%	-13	-2.1	26	-0.8%
COCCNC(=O)CN(C(=O)CCC(=O)Nc1cc(C)on1)c1ccc(C)cc1C	3	8	5%	8	-4.3	2	-3.0%
Cc1[nH]c2ccccc2c1C(=O)COC(=O)C(C)C	-8	0	17%	3	-1.9	-4	-2.6%[38.3 µM]
O=C(CN1CCCc2ccccc21)N/N=C/c1ccccc1	-10	-12	16%	-11	-0.2	-4	3.4%
COc1cccc(S(=O)(=O)Nc2cccc(C(=O)N3CCCC3)c2)c1	-5	2	15%	1	6.1	7	-0.2%

Twelve structures from above, ordered by heavy-atom count, falling:
SMILES	D2 potentiator	CtBP-E1A inh	Sfp PPTase inh	Six1-Eya2 inh	D2 ag	TRPV1 potentiator	PINK1 modulator
CCCn1c(CCC(=O)Nc2ccccc2Cc2ccccc2)nc2cc(S(=O)(=O)N3CCOCC3)ccc21	0	-6	12%	1	-0.6	-26	1.4%
CCC(C)(C)n1nnnc1C(c1ccc(OC)c(OC)c1)N1CCN(c2ccc(OC)cc2)CC1 (stereo not given)	-5	-11	18%	-27	-0.7	.	-1.0%
CC(C)OC(=O)CC12CN3CC(CC(=O)OC(C)C)(CN(C1)C(=O)c1ccccc1C3=O)C2=O	-9	0	8%	11	2.4	4	0.8%
CCCC(=O)Nc1ccc2nc(SCC(=O)Nc3ccc(N4CCOCC4)c(Cl)c3)sc2c1	3	-4	1%	-8	-1.5	12	0.5%
COCCNC(=O)CN(C(=O)CCC(=O)Nc1cc(C)on1)c1ccc(C)cc1C	3	8	5%	8	-4.3	2	-3.0%
O=C(Nc1ccc(Cl)c(S(=O)(=O)N2CCOCC2)c1)c1ccc2c(c1)OCCO2	12	-29	10%	-22	1.9	-19	1.6%
CCOC(=O)c1ccc(-n2c(CCC(=O)O)ccc2-c2ccc(F)cc2)cc1	-12	.	-2%	-13	-2.1	26	-0.8%
COC1OCC(O)C(OC(=O)c2ccccc2)C1OC(=O)c1ccccc1 (stereo not given)	1	2	.	0	-1.3	.	-4.1%
COc1cccc(S(=O)(=O)Nc2cccc(C(=O)N3CCCC3)c2)c1	-5	2	15%	1	6.1	7	-0.2%
CCOc1cc(C=O)cc(N=Nc2cccc([N+](=O)[O-])c2)c1O	-11	-12	9%	-15	4.0	0	-0.9%
CCCCc1cc(C(=O)Cc2ccccn2)c(O)cc1O	-5	.	2%	-7	4.9	-17	4.0%
Cc1[nH]c2ccccc2c1C(=O)COC(=O)C(C)C	-8	0	17%	3	-1.9	-4	-2.6%[38.3 µM]

Next part.
SMILES	D2 potentiator	CtBP-E1A inh	Sfp PPTase inh	Six1-Eya2 inh	D2 ag	TRPV1 potentiator	PINK1 modulator
O=C(O)CCc1ccc(-c2ccccc2)n1-c1cccc(O)c1	7	4	-17%	-2	0.3	?	.
COc1cc(C(=O)Nc2ccc(-c3nc4cc(C)ccc4o3)c(O)c2)cc(OC)c1OC	-21	3	10%	7	0.6	3	-2.7%[38.3 µM]
COc1cc2cc(CN(CCCN3CCOCC3)C(=O)Nc3ccc(F)cc3)c(=O)[nH]c2cc1OC	-6	.	16%	-3	-5.0	3	1.2%
COc1ccnc(Oc2ccc(C)cc2)c1C#N	0	7	-9%	4	-0.8	-6	6.1%[38.3 µM]
C#CCn1c(O)c(N=NC(=O)C(O)c2ccccc2)c2ccccc21 (stereo not given)	0	1	3%	-9	0.1	-14	-2.4%
O=[N+]([O-])c1ccc(N/N=C/c2ccc(OCc3cccc4ccccc34)cc2)nc1	-6	.	-8%	-4	2.0	-10	?
O=C(c1ccccc1F)N1CCN(C(=O)C2CC2)CC1	-5	-1	10%	1	-0.6	11	-0.5%
CCc1nc2c(OCc3c(C)noc3C)cccn2c1N(C=O)Cc1ccc(OC)cc1	7	-10	.	5	12	.	0.6%
C/C(Cn1nnc([N+](=O)[O-])n1)=N\NC(=O)c1ccncc1	14	-11	-23%	11	?	-23	1.2%
O=C(O)COc1c(-c2ccco2)oc2ccccc2c1=O	-3	-1	11%	-7	1.4	-2	0.5%
Cc1ccc2nsnc2c1NC(=O)c1ccc([N+](=O)[O-])cc1	-3	-14	23%	21	-2.9	8	8.2%
COC(=O)CNC(=O)C1CCN(C(=O)OCc2ccccc2)CC1	-3	8	5%	7	-4.2	-2	3.6%
CC(=O)Cc1nsc(NC(=O)c2cc(-c3ccccc3Cl)oc2C)n1	-4	-1	6%	0	-1.4	-5	6.9%
CC1CC(C)CN(CCCNC(=O)C2CCCN(c3ncnc4c3nc3n4CCCCC3)C2)C1 (stereo not given)	-18	-15	15%	-5	1.5	5	0.0%
O=C(NCCc1ccccc1)C1CCN(C(=O)NCc2ccccc2)CC1	9	5	-4%	5	0.4	17	-2.6%
COc1ccc(S(=O)(=O)N=N/C=C2\C=CC=CN2O)cc1OC	-7	-1	.	2	-6.0	.	0.7%
COc1ccc(NC(=O)Cn2nc(C(F)(F)F)c3c2CCCC3)cc1OC	-9	0	9%	-2	1.2	15	?
CC(C)CC(=O)NS(=O)(=O)c1ccc(N)cc1	-29	1	14%	-11	-1.0	?	-0.4%
O=C(Nc1ccc(F)cc1)c1cncs1	-1	-9	20%	-6	-4.4	1	2.0%
Cn1c(=O)c(=O)n(C)c2cc(S(=O)(=O)N3CC(=O)N(CCc4ccccc4)C(=O)C3)ccc21	-12	.	7%	-2	-4.0	-18	0.7%
CCN1c2cccc3cccc(c23)S1(=O)=O	-2	11	15%	11	-0.1	11	3.0%[38.3 µM]
COc1cc(/C=N/NC(=O)CCN2CCN(Cc3ccccc3)CC2)cc(OC)c1OC	-21	-4	20%	-10	0.4	2	2.4%
CSc1ccccc1-c1nnc(-c2ccc(C)cc2)o1	-10	9	?	14	-1.2	.	1.6%
CCOC(=O)C(C)NC(=O)Cn1ncc2c(=O)oc3ccc(C)cc3c21 (stereo not given)	3	2	8%	0	-4.8	9	0.7%
CC1CN(c2ccccn2)C(C)CN1C(=S)Nc1ccccc1 (stereo not given)	-16	10	.	-2	0.3	.	-5.0%
Cc1cc(C)c(C)c(S(=O)(=O)N2CCC(C(=O)Nc3ccc(S(=O)(=O)N4CCOCC4)cc3)CC2)c1C	11	-1	2%	-3	4.6	-7	3.8%
CN(C)C(=O)c1cn(-c2ccccc2)nc1-c1cccc([N+](=O)[O-])c1	-4	-13	2%	7	-3.9	-14	0.2%
CC(=O)c1cccc(NC(=O)C(C)N(C)CC(=O)Nc2ccc(Cl)cc2)c1 (stereo not given)	-5	1	-5%	-8	-1.8	-7	2.1%

High-throughput results as filed in PubChem.
